Source: PubChem (National Center for Advancing Translational Sciences (NCATS))
StopGo reporter = FMDV 2A StopGo reporter, luciferase signal. actives 1.2% (n = 410,000). Potency, µM (doses to about 57.9 µM), inactives show top-dose signal change, negative = less light. AID 1159524. human cells with a luciferase reporter of 2A StopGo recoding; control for the full effect not named in the record; active = well fitted falling curve with a large enough effect; inconclusive = small, poorly fitted or top-dose-only effect; inactive = no such curve, though single readings can be large or run the other way; tested in HEK293T cells; further: on the % scale 0 is the no-effect control and ±100 the full control effect; nearly all actives have a fitted effect of over 45% in size; luciferase light after 4 h
SARS PLpro yeast = inhibitors of SARS-CoV papain-like protease in yeast | actives 0.19% (n = 330,000) | S. cerevisiae expressing SARS-CoV PLpro, growth rescue; control for the full effect not named in the record | AID 485353 | Potency, µM (top dose mostly 32.9 µM), for inactives: top-dose activity, positive = growth rescue; active means well fitted rising curve with a large enough effect; inconclusive means small, poorly fitted or top-dose-only effect; inactive means no such curve, though single readings can be large or run the other way; further: 0% is about no effect; nearly all actives have a fitted effect of over 55% in size; growth read by luminescence after 48 h
MARV entry inh = Marburg virus entry inhibition | Marburg virus pseudotyped entry inhibition, cell reporter; control for the full effect not named in the record; about a third of the inactives were read at about 46 µM | Potency, µM (doses to about 37.8 µM), inactives show at the highest dose activity change, negative = inhibition, usual class: inhibitors | actives 1.8% (n = 300,000); active = well fitted inhibition curve with a large enough effect; inconclusive = small, poorly fitted or top-dose-only effect, or effect the other way; inactive = flat fitted curve, though single readings scatter; tested in HEK293 cells; about a fifth of its hits are not listed in these tables; further: on the % scale 0 is the no-effect control and ±100 the full control effect; luciferase read-out
LASV entry inh = inhibitors of Lassa virus binding or cell entry; Lassa virus pseudotype entry inhibition, cell reporter; control for the full effect not named in the record; actives 1.2% (n = 300,000); AID 540256; Potency, µM (series often up to 37.9 µM), for inactives: at the highest dose activity change, negative = inhibition, actives largely listed as inhibitors; active means well fitted inhibition curve with a large enough effect; inconclusive means small, poorly fitted or top-dose-only effect, or effect the other way; inactive means flat fitted curve, though single readings scatter; tested in HEK293 cells; further: on the % scale 0 is the no-effect control and ±100 the full control effect; nearly all actives have a fitted effect of over 50% in size; luciferase read-out
Cruzain noTriton = cruzain (T. cruzi) inhibition without detergent | P25779 | purified cruzain, Z-FR-AMC fluorescence, no detergent | Potency, µM, without a hit: max response, negative = inhibition, usual class: inhibitors | actives 2.3% (n = 200,000);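 further: plate controls were enzyme without inhibitor for no effect and buffer without enzyme for full effect; nearly all actives have a fitted effect of over 40% in size; top concentration of the series not given in the record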
Target sequence (P25779 123-467 limits assumed): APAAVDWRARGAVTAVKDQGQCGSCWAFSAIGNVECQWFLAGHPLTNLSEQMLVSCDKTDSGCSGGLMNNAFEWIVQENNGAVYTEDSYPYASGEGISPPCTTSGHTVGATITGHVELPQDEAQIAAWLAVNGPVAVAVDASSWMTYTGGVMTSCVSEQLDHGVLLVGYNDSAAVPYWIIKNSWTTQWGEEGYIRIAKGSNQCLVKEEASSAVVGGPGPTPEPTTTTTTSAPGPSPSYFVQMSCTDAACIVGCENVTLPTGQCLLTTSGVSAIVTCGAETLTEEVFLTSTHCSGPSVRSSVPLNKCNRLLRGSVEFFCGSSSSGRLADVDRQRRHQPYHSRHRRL
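Purified cruzain at 1.5 nM, pre-incubated 15 min with compound at room temperature in 100 mM sodium acetate pH 5.5, 5 mM DTT, 0.00005% Triton X-100. Reaction started with 2 uM Z-FR-AMC; AMC fluorescence increase over 60 s gives rate.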
RE007 growth inh = less growth of the S. pombe RE007 Vpr strain | S. pombe RE007 Vpr strain, BacTiter-Glo ATP luminescence, 24 h; control for the full effect not named in the record | Potency, µM (titrated, usually from 92.2 µM), inactives show at the highest dose activity change, negative = less growth | actives 0.21% (n = 360,000) | AID 651644; active = well fitted falling curve with a large enough effect; inconclusive = small, poorly fitted or top-dose-only effect; inactive = no such curve, though single readings can be large or run the other way;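 further: on the % scale 0 is the no-effect control and ±100 the full control effect; nearly all actives have a fitted effect of over 50% in size; the assay follows cell death caused by Vpr and the record does not say whether a fall means rescue or toxicity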
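Fission yeast RE007 carrying one integrated HIV-1 vpr copy, seeded at OD 0.01 in PMG+AL medium with 23 nL pinned compound. Grown 24 h at 30 degrees; viability read by BacTiter-Glo luminescence after 5 min.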
Cruzain inh Det = blocks cruzain activity in presence of Triton detergent; P25779; purified cruzain, Z-FR-AMC fluorescence, 0.01% Triton; Potency, µM, for the others: max response, negative = inhibition, most hits filed as inhibitors; actives 0.43% (n = 200,000);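 further: plate controls were neutral wells for no effect and buffer without enzyme for full effect; nearly all actives have a fitted effect of over 40% in size; top concentration of the series not given in the record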
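Steps: dispense cruzain (1.5 nM final) in acetate buffer pH 5.5 with DTT and 0.01% Triton X-100; pin-transfer compounds; incubate 15 min RT; add Z-FR-AMC (2 uM final); read fluorescence every 30 s, using the 60 s intensity change.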
NS1 function inh = influenza NS1 inhibition | AID 2326 | S. cerevisiae slowed by influenza A NS1, growth recovery by OD600 | actives 0.4% (n = 270,000) | Potency, µM (titrated, usually from 46.1 µM), without a hit: top-dose activity, positive = more growth; active means well fitted rising curve with a large enough effect; inconclusive means small, poorly fitted or top-dose-only effect; inactive means no such curve, though single readings can be large or run the other way; further: nearly all actives have a fitted effect of over 50% in size
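In this qHTS, NS1 from influenza A is expressed in budding yeast, where it slows growth. Cells are switched from glucose to 2% galactose medium (pH 6.0, -URA), treated with compound, and growth recovery is read at OD600.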
Numbers without * were called inactive; ? = inconclusive; · = no result given; [ ] = remark or other dose. Unless noted, the call rests on the fitted dose curve; in most records, active means well fitted curve in the direction sought with a large enough effect; inconclusive means small, poorly fitted or top-dose-only effect, or another doubt; inactive means no such curve, though single readings can be large; an effect the other way counts as inactive or inconclusive. Potency means the concentration at half of the fitted maximal effect. Not a hit list; any-hit rate near 4.6%.

Values run as follows: StopGo reporter	SARS PLpro yeast	MARV entry inh	LASV entry inh	Cruzain noTriton	RE007 growth inh	Cruzain inh Det	NS1 function inh
- CC(C)C(=O)NC(=S)N(Cc1ccccc1)Cc1ccccc1
→ 69.7%[activator]	-5.2%	28.3%	2.8%	-0.9%	10.9%	-4.9%	-28.9%
- O=C(CCc1nc2ccccc2c(=O)[nH]1)NNC(=O)c1cccc(Cl)c1
→ -8.8%	-1.1%	6.6%[46.1 µM]	-0.5%	·	-4.9%	·	·
- Cc1cccc(C(=O)NCCCNC(=O)c2ccc(C)nc2)c1
→ 18.4%	0.3%	-18.6%[46.1 µM]	27.8%[46.1 µM]	·	0.1%	·	2.9%
- CC(C)=C1SC(N2CCCCC2)=NC1=O
→ -3.6%	-10.6%	4.1%	7.1%	-5.0%	-9.0%	-1.7%	1.5%
- O=C1c2cccc3cccc(c23)C(=O)N1/N=C/c1c(O)n(-c2ccccc2)c(=O)[nH]c1=O
→ ?	1.5%	1.8%[46.1 µM]	0.7%	·	0.1%	·	3.7%
- Cc1ccc(C)c(Cn2nnc(C(=O)NCc3ccccc3)c2N)c1
→ -15.3%	·	?	7.1%[46.1 µM]	-9.5%	·	1.8%	·
- Cc1cc(Br)ccc1NC(=O)CN1C(=O)C2C3CC(c4ccccc4)C(C3)C2C1=O (stereo not given)
→ ?	-24.6%	?	-27.3%	-26.6%	9.4%	-5.3%	14.0%
- O=C(Cc1ccccc1)NCCc1cnc[nH]1
→ -2.6%	-0.7%	8.5%[46.1 µM]	19.5%[46.1 µM]	·	3.8%	·	4.2%
- COc1ccc(N(CC(=O)NCCC2=CCCCC2)S(C)(=O)=O)cc1
→ 8.1%	-2.0%	-0.7%	-12.1%	15.2%	8.0%	-0.2%	-2.0%
- COc1ccc(CN2CCN(C3CCC3)CC2CCO)c(C)c1C (stereo not given)
→ -9.1%	7.8%	?	-12.4%	·	-5.4%	·	-9.6%
- CCOc1ncccc1C(=O)Nc1ccc(S(=O)(=O)NC2=NCCCCC2)cc1
→ 5.2%	1.2%	-22.7%[46.1 µM]	16.2%	·	-5.1%	·	-4.0%
- CCOC(=O)C1CCN(C2=NC(=O)/C(=C/c3ccccc3OC)S2)CC1
→ 11.8%	-1.2%	·	·	·	-0.1%	·	-12.0%
- CCCOC(=O)c1cccc(Nc2nc(-c3cccnc3)nc3ccccc23)c1
→ 25.1µM*	6.2%	10µM*	?	15.6%	-24.3%	-10.7%	-2.1%
- CN1CCC(=NNC(=O)c2ccco2)CC1
→ -23.4%	-2.1%	12.1%	9.9%	-7.2%	3.9%	3.1%	-3.8%
- O=c1[nH]c(=O)n(C2CCCCC2)c(O)c1/C=N/N1CCCCC1c1cccnc1 (stereo not given)
→ -6.9%	-0.8%	·	·	·	-8.0%	·	1.7%
- COc1ccc(OC)c2sc(NC(=O)c3ccc(S(=O)(=O)N4CCCC4)cc3)nc12
→ ?	·	·	2.2%[46.1 µM]	1.8%	·	3.7%	·
- Cc1cccc(NC(=O)COC(=O)C2C3CC4OC(=O)C2C4C3)c1C (stereo not given)
→ -0.7%	2.0%	11.9%[46.1 µM]	-3.0%	·	-3.0%	·	5.8%
- COc1ccc(N(C(=O)c2cccnc2)S(=O)(=O)c2ccc3c4c(cccc24)C(=O)N3C)cc1
→ -28.4%	-7.2%	?	-2.6%	?	16.6%	-13.3%	9.2%
- Cn1c(C(=O)NCCOc2ccccc2Cl)cc(=O)n(C)c1=O
→ 2.1%	-4.6%	1.7%[46.1 µM]	8.8%	·	9.6%	·	·
- CCOc1ccc2nc(SC(CC)C(=O)Nc3cc(C)on3)sc2c1 (stereo not given)
→ -7.2%	-0.5%	-9.4%	-1.7%	1.8%	16.5%	-3.0%	-9.3%
- O=C(Nc1ccccc1C(=O)N1CCOCC1)c1ccco1
→ -21.5%	-12.2%	?	2.7%	3.9%	-6.2%	1.1%	5.4%
- COc1ccc(CN(CC2CCCO2)S(=O)(=O)c2ccc(C(=O)O)cc2)cc1OC (stereo not given)
→ -12.4%	0.7%	1.2%	-13.5%	-4.2%	20.0%	4.0%	5.2%
- Cc1ccc2sc(=O)[nH]c2c1
→ -18.1%	0.1%	·	·	·	-20.6%	·	-0.1%
- Fc1ccc(-c2nnc(-c3ccc4ccccc4c3)o2)cc1
→ -9.7%	·	?	?	·	12.9%	·	·
- O=C(NCc1cccnc1)c1nn(-c2ccc(F)cc2)nc1CO
→ -3.5%	·	-14.5%[46.1 µM]	22.2%[46.1 µM]	-12.8%	·	-3.4%	·
- O=c1c2ccccc2[nH]c(=S)n1-c1cccc(S(=O)(=O)N2CCCC2)c1
→ -27.5%	-2.9%	0.1%[46.1 µM]	11.6%	5.5%	-4.0%	-1.4%	11.9%
- CC(OC(=O)CSCC(=O)Nc1ccc(Cl)cc1)C(=O)N(C)Cc1ccccc1 (stereo not given)
→ -28.7%	·	?	8.1%	·	1.1%	·	·
- O=C(O)c1ccc(N=C2c3ccccc3-c3ccccc32)cc1
→ 15.7%	·	4.2%[46.1 µM]	7.5%[46.1 µM]	·	-6.2%	·	·
- O=c1[nH]cc(S(=O)(=O)N2CCCc3ccccc32)c(=O)[nH]1
→ -11.5%	0.1%	?	-4.0%	·	-0.3%	·	·
- CC(OC(=O)c1cc(=O)[nH]c2ccccc12)C(=O)NCc1ccccc1 (stereo not given)
→ -8.8%	-2.2%	-6.6%[46.1 µM]	0.6%	·	2.8%	·	·
- Cn1c(=O)oc2cc(S(=O)(=O)N3CCC(C(=O)Nc4ccc(OC(F)(F)F)cc4)CC3)ccc21
→ -14.0%	5.9%	-29.4%	-5.1%	?	0.6%	0.3%	5.5%
- Cc1onc(-c2c(Cl)cccc2Cl)c1C(N)=O
→ ·	0.6%	-1.5%	3.4%	-15.9%	-2.0%	4.2%	2.1%
- O=C(CCC1CCCC1)Nc1ccc(C(=O)NCc2cccnc2)cc1
→ -9.3%	-2.3%	·	·	·	13.3%	·	-0.5%
- Cn1c(Cc2cccs2)n[nH]c1=S
→ -6.3%	-3.5%	-22.6%	-13.3%	6.5%	4.6%	5.6%	5.9%
- O=C(O)c1ccc(N2C(=O)Nc3ccccc3N2O)cc1
→ -21.3%	-2.3%	?	?	·	-4.3%	·	·
- CS(=O)(=O)Nc1cccc(-c2cnc3ccccc3n2)c1
→ -0.4%	-2.6%	?	-55.3%[46.1 µM]	·	11.6%	·	-2.9%
- CCN(CC)CCN(Cc1cc2cccc(C)c2[nH]c1=O)C(=S)Nc1ccccc1
→ -18.5%	1.1%	?	6.8%	·	-15.2%	·	2.5%
- Cn1c(=O)c2c(-c3ccccc3)n(Cc3cccnc3)cc2n(C)c1=O
→ -17.4%	-2.1%	5.5%	0.4%	1.4%	8.0%	-2.2%	-5.0%
- C[C@]12CCC(=O)C=C1CC[C@@H]1C2CC[C@]2(C)C(=O)CCC12 (stereo not given in full)
→ -21.0%	-3.4%	·	·	·	-5.7%	·	-1.4%
- O=C(CSc1n[nH]c(-c2ccccc2)n1)N1CCCC1
→ 20.2%	-3.0%	27.7%[46.1 µM]	9.3%[46.1 µM]	·	7.3%	·	-6.5%
- COC(=O)CSc1ncc(S(=O)(=O)c2ccccc2)c(=O)[nH]1
→ -13.0%	0.8%	13.5%[46.1 µM]	-12.1%[46.1 µM]	·	26.4%	·	14.1%
- CC(C)Oc1ccc(CNC(=O)c2ccc(CS(=O)c3cccc(Cl)c3)o2)cc1 (stereo not given)
→ -21.3%	·	·	-28.1%[46.1 µM]	4.0%	·	-23.8%	·
- COc1cc(CC(NC(C)=O)C(=O)NC2CCN(C(=O)Nc3ccc(C)cc3)CC2)cc(OC)c1 (stereo not given)
→ -0.4%	0.2%	5.3%[46.1 µM]	11.9%[46.1 µM]	·	-5.7%	·	0.0%
- Cc1cc(C)nc(SCCS(=O)Cc2ccc(Cl)cc2)n1 (stereo not given)
→ -6.6%	5.1%	9.1%	-18.6%	12.7%	0.8%	5.9%	-3.7%
- CCOC(=O)C(O)(c1ccc(NC(=O)c2ccc(Cl)c(Cl)c2)cc1)C(F)(F)F (stereo not given)
→ -17.0%	-3.2%	·	·	·	?	·	-6.8%
- CCCN1CNC(=S)N(c2ccccc2OCC)C1
→ -24.8%	-2.5%	11.3%	1.4%	-10.5%	-18.3%	-0.1%	4.5%
- Cc1sc(NC(=O)CSc2nnnn2C)c(C#N)c1C
→ 3.1%	1.0%	·	·	·	-4.3%	·	-0.4%
- Cc1ccc(NC(=O)NNC(=O)COc2ccc3ccccc3c2)cc1
→ -16.6%	3.9%	15.3%	4.0%	·	-2.1%	·	1.0%
- Cc1ccc(C(=O)Cn2cnc3ccccc3c2=O)cc1C
→ 36.4%[activator]	·	24.1%	?	3.9%	-21.2%	1.1%	-93.8%
- Cc1ccc(C(C)C)c(OCC(=O)Nc2ccc(C(=O)OC3CCCCC3)cc2)c1
→ -17.5%	·	·	25.0%[46.1 µM]	-5.2%	·	-0.7%	·

(continued)
Values run as follows: StopGo reporter	SARS PLpro yeast	MARV entry inh	LASV entry inh	Cruzain noTriton	RE007 growth inh	Cruzain inh Det	NS1 function inh
- COc1ccc(NC(=O)CS(=O)(=O)Cc2ccccc2)c([N+](=O)[O-])c1
→ 25.5%	2.9%	15.7%	14.3%	·	6.1%	·	27.2%
- O=C(CCC1CCCC1)N1CCc2c([nH]c3ccccc23)C1c1ccc(F)cc1 (stereo not given)
→ -19.9%	·	·	5.01µM*	?	·	2.4%	·
- O=C(NCCC1=CCCCC1)NC12CC3CC(CC(C3)C1)C2
→ -24.1%	-116.4%	-17.9%	?	-8.3%	40.6%	-2.4%	-55.6%
- CC1CCN(CCc2nc3cc(NC(=O)NC4CCCCC4)ccc3n2C)CC1
→ 14.6%	10.9%	?	10.3%	-1.7%	1.1%	2.9%	-1.0%
- CC(=O)c1cccc(NC(=O)C2CCN(C(=O)c3cnn(-c4ccccc4)c3-n3cccc3)CC2)c1
→ ?	·	-18.0%[46.1 µM]	-0.2%[46.1 µM]	?	·	-6.3%	·
- Cc1ccc(NC(=O)c2noc3c2CCCCC3)cc1
→ -33.3%	0.8%	?	14.6µM*	6.8%	-1.4%	4.7%	-33.1%
